UCH37 inh = blocks the human deubiquitinase UCH37; purified proteasome/UCH37, Ub-AMC cleavage fluorescence; inhibition, % (concentration not given with the values); hit rate 0.33% among 330,000; AID 588478;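 active = mean of two replicates above 20%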;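 also: 0% = compound-free wells with enzyme and 100% = wells lacking proteasome; stock transfer was 100 nL into about 20 µL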
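system = Proteasome-associated human UCH37 deubiquitinase | amount = 0.15 nM proteasome as dispensed | medium = pH 7.4 Tris-HCl (50 mM) with ovalbumin, ATP-MgCl2, DTT | incubation = 30 min preincubation with enzyme, 25 min cleavage at room temperature | detection = AMC fluorescence 355/460 nm | read-out basis = percent inhibition | controls = no-proteasome and no-compound wells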
HNF4A DNA FP = change in binding of human HNF4 alpha to DNA | P41235 | activity change, % at 10 µM | AID 1224865 | hit rate 0.3% among 360,000 | HNF4a-FITC DNA binding, fluorescence polarization, 1 h; in the data active = activity change above about 30%, passing the limit was not always enough;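 also: controls were the assay level and a saturating level of protein; the project sought stronger binding though the title names inhibitors; some compounds called inactive have numbers as strong as hits; positive values seem to mean higher polarization but the record does not say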
FGF22 binding = shifts melting point of recombinant human FGF22 | Q9HCT0 | recombinant FGF22 thermal shift, SYPRO orange fluorescence; percent of sucrose octasulfate shift, DMSO zero | calls only at 9.99 µM | hit rate 1.5% among 340,000 | AID 651658;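 active = melting point raised past a set limit in the mean and every replicate; three in four hits are not shown here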
Target sequence (Q9HCT0 whole entry, looked up): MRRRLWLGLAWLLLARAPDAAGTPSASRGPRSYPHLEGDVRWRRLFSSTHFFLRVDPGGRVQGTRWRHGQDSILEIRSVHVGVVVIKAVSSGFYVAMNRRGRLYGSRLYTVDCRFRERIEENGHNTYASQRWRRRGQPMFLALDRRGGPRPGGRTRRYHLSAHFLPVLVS
ALR H2O2 inh = blocks human ALR sulfhydryl oxidase activity; P55789; purified ALR, DTT oxidation, H2O2 HRP-luminol luminescence; inhibition, % (concentration not given with the values); hit rate 3.8% among 290,000; AID 485317;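 active = mean and each replicate at 75% or more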;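 also: stock transfer was 7.5 nL into about 7.5 µL; 0% = neutral wells and 100% = wells with inactivated enzyme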
Target sequence (P55789 whole entry, looked up): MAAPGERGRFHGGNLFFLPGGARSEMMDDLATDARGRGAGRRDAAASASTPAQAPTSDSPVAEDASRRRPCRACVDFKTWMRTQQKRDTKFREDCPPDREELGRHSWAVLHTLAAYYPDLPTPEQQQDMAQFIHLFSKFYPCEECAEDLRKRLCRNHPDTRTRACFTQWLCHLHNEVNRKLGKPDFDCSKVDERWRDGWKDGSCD
Beta2AR agonist = human beta-2 adrenergic receptor agonism by FAP; P07550; Am2.2-beta2AR cells, FAP receptor internalization, flow cytometry; reference of the scale not given here; response, % (test concentration not listed); hit rate 0.43% among 340,000; AID 504454;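 active = response above a set limit, near 3 SD of response in nonfluorescent compounds, cut at about 42% in these data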;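 also: stock transfer was 100 nL into about 11 µL; a reference agonist was the positive control; negative values mostly stem from fluorescent compounds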
Target sequence (P07550 whole entry, looked up): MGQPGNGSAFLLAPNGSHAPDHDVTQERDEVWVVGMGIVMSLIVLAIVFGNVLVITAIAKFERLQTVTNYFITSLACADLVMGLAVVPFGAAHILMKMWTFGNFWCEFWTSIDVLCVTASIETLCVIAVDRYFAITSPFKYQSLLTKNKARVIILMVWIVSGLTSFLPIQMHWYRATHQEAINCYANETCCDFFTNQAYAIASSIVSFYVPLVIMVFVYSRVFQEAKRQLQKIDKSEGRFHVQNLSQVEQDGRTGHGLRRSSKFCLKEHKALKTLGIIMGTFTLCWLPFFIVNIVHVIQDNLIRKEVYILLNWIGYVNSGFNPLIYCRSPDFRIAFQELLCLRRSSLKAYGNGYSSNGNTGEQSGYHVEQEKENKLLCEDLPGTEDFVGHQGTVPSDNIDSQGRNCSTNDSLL
Ecoli rRNA inh = inhibitors of bacterial rRNA selective over humanized ribosomes. E. coli WT GFP vs humanized-ribosome RFP mutants, fluorescence, 24 h; hits give low values; DMSO median 0, no signal -100. hit rate 1.6% among 350,000. AID 720706. GFP signal change (wild-type ribosome), % (concentration not given with the values);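 active = significant combined selectivity score with lowered wild-type GFP, culture density cut under 30%, mutant RFP and density less affected; inactive = any of these conditions unmet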; also: one replicate is shown; some compounds called inactive have numbers as strong as hits
E coli growth = inhibitors of Escherichia coli growth; OD600, 23 h; hits give low values; OD600 absorbance (concentration not given with the values); hit rate 0.21% among 330,000;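 active = OD600 absorbance below the run mean of sample wells minus 3.6 SD, in any replicate, cut at about 0.56 in these data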;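 also: stock transfer was 300 nL into about 60 µL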
Ecoli rRNA inh OD600 = further read-out of Ecoli rRNA inh, marked with its call; OD600 change, %; measured here: OD600 growth;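 optical density of the mix in the first replicate; 0 = DMSO median and -100 = no signal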
Ecoli rRNA inh RFP = also measured in Ecoli rRNA inh; calls as there; RFP signal change, %; measured here: RFP humanized mutant strains;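 first replicate; 0 = DMSO median and -100 = no signal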
An asterisk follows results filed as active; i = inactive; . = not tested or not shown. Some of the compounds tested; the hit share may differ from the screen's.

UCH37 inh	HNF4A DNA FP	FGF22 binding	ALR H2O2 inh	Beta2AR agonist	Ecoli rRNA inh	Ecoli rRNA inh OD600	smiles	Ecoli rRNA inh RFP	E coli growth
3.7	-3.5	.	2	-9	.	.	CCOC(=O)c1cc2sc(C)cc2n1CC(=O)Nc1cccc(C)c1C	.	0.65
1.1	0.4	.	99*	1	.	.	COc1cccc(Nc2c(F)c(F)c(F)c(F)c2C(=O)O)c1	.	0.71
0.7	-2.1	.	98*	7	.	.	Cc1occc1C(=O)NC(C)C(C)(C)C (configuration not stated)	.	0.65
-15	-1.5	i	-21	26	6	8	NC(=O)c1ccc(Oc2cccc3cccnc23)c([N+](=O)[O-])c1	-0.2	0.71
1.3	1.8	i	-6	3	8	10	O=C(COc1ccc(Br)cc1)NCCNC(=O)c1cccnc1	1.2	0.7
0.5	0.6	.	-1	4	.	.	O=C(O)C1C2C=CC(C3CC23)C1C(=O)NCCc1ccccc1 (configuration not stated)	.	0.71
0.9	-4.0	.	.	-4	.	.	Cc1c(C(=O)c2ccc(Cl)cc2Cl)cnc2cc3c(cc12)OCO3	.	0.7
-144	3.5	i	5	6	-7	-4	N#Cc1cnn2c(-c3ccc(Cl)cc3Cl)ccnc12	-5.5	0.7
3.8	-1.3	.	-5	3	.	.	CCn1ncc([N+](=O)[O-])c1C(=O)Nc1cc(C)on1	.	0.68
4.8	-1.7	i	-4	-4	3	1	CN(CC(=O)Nc1cccc(F)c1)C(=O)c1cc([N+](=O)[O-])ccc1N1CCOCC1	0.5	0.65
0.0	2.0	i	-1	3	10	6	COc1cccc(-c2c[nH]c(=O)[nH]c2=O)c1	0.6	0.66
0.2	3.4	i	-4	1	17	24	CCn1cc(CN2CCC(n3nccc3NC(=O)C3CCCC3)CC2)c(C)n1	-0.7	0.68
0.5	1.3	i	-1	2	6	1	O=C(OCc1nnc(-c2ccccc2)o1)c1ccc(Br)o1	2.3	0.6
1.9	2.8	i	.	1	6	6	O=C(CCN1CCCCC1=O)NC1CCCN(Cc2ccc(Cl)cc2)C1 (configuration not stated)	-1.8	0.7
0.3	-1.2	.	-28	-26	.	.	Cc1cc(C)nc(Nc2nc3ccccc3[nH]2)n1	.	0.75
0.1	1.4	.	-17	3	.	.	Cc1cc(C)cc(NC(=S)NCC2CCCO2)c1 (configuration not stated)	.	0.74
1.3	-0.6	i	-2	2	2	0	CCCCC1CCC(C(=O)N(CCOC)c2c(N)n(CCCC)c(=O)[nH]c2=O)CC1 (configuration not stated)	-1.3	0.66
3.7	-1.3	.	-5	-8	.	.	C=CCSc1nc2c(c(=O)[nH]c(=O)n2C)n1CC	.	0.75
.	31	i	-4	1	-6	11	O=C(N/N=C/c1ccncc1)c1ccc(NC(=O)c2cccc(Cl)c2)cc1	0.9	.
1.2	8.5	.	-2	8	.	.	CC1Cc2ccccc2N1C(=O)c1cc2sccc2n1Cc1ccc(F)cc1 (configuration not stated)	.	0.79
5.2	0.2	.	-16	3	.	.	Nc1c(C(=O)NCc2ccc3c(c2)OCO3)nnn1-c1ccc(OC(F)(F)F)cc1	.	0.68
0.8	-1.5	i	-1	5	2	10	CCOc1ccc(C(=O)COC(=O)C2COc3ccccc3O2)cc1 (configuration not stated)	-0.1	0.66
1.9	1.2	.	-1	-9	.	.	COc1ccc(NC(=O)COc2nsnc2N2CCCCC2)cc1	.	0.67
2.0	0.0	.	1	12	.	.	Cc1ccc(SCc2[nH]nc3c2C2(C(=O)N(C)c4ccccc42)C(C#N)=C(N)O3)cc1 (configuration not stated)	.	0.75
-272	2.1	i	2	3	-6	-5	CCOC(=O)c1c(-c2ccc(OC)cc2)oc2ccc(O)cc12	0.0	0.64
.	1.6	i	.	.	-10	-55	CC(C)NC(=O)C1Cc2c(-c3ccccc3Oc3ccccc3)ccnc2O1 (configuration not stated)	-2.6	.
2.7	-4.5	i	13	1	1	1	O=C(Cn1cnc2c(cnn2-c2ccccc2)c1=O)NC1CCCC1	1.2	0.69
3.8	2.1	i	2	3	-20	-29	NS(=O)(=O)c1ccc(CCNC(=O)C2CCN(S(=O)(=O)c3ccc(Br)s3)CC2)cc1	0.7	0.69
2.4	0.2	.	.	3	.	.	COc1ccc(C(=O)NCCSc2ccccn2)cc1	.	0.7
5.9	1.4	.	-4	-6	.	.	O=c1c2ccccc2nc(CSc2nnnn2-c2ccccc2)n1-c1ccccc1Cl	.	0.74
7.0	-1.8	i	-4	8	-29*	-14*	Cc1ccc(/C=C/C(=O)N(Cc2cccs2)C2CCS(=O)(=O)C2)cc1 (configuration not stated)	-3.7*	0.67
.	1.2	i	0	4	0	-5	C/C(=N\NC(=O)CCn1nnc2ccccc21)c1cccs1	-0.5	.

Some of the entries so far, with tabs:
SMILES	UCH37 inh	HNF4A DNA FP	FGF22 binding	ALR H2O2 inh	Beta2AR agonist	Ecoli rRNA inh	Ecoli rRNA inh OD600	Ecoli rRNA inh RFP	E coli growth
COc1ccc(C(=O)NCCSc2ccccn2)cc1	2.4	0.2	.	.	3	.	.	.	0.7
O=c1c2ccccc2nc(CSc2nnnn2-c2ccccc2)n1-c1ccccc1Cl	5.9	1.4	.	-4	-6	.	.	.	0.74

(next part)
UCH37 inh	HNF4A DNA FP	FGF22 binding	ALR H2O2 inh	Beta2AR agonist	Ecoli rRNA inh	Ecoli rRNA inh OD600	smiles	Ecoli rRNA inh RFP	E coli growth
-0.2	4.0	i	-13	-1	1	8	CCOC(=O)N1CCN(CCC(=O)Nc2cc(C)ccc2C)CC1	-0.8	0.69
0.4	-1.6	i	1	10	2	6	Cc1cc(F)ccc1NC(=O)Nc1ccc2c(c1)OCO2	-1.9	0.75
5.5	-2.5	.	.	.	4	5	O=C(NC(=S)NC12CC3CC(CC(C3)C1)C2)c1ccc(F)cc1	2.1	0.72
-8.5	4.8	i	-2	14	16	-10	COC(=O)c1ccc2c(=O)[nH]c(COC(=O)c3[nH]c(C)c(C(C)=O)c3C)nc2c1	4.4	0.67
i	-5.8	i	8	32	2	22	COc1ccc(-c2cn3cccnc3n2)cc1NC(=O)C(C)Oc1ccccc1 (configuration not stated)	1.3	0.68
5.0	1.3	.	-20	-8	.	.	Cc1c(NC(=O)COC(=O)C(c2ccc(Cl)cc2)C(C)C)c(=O)n(-c2ccccc2)n1C (configuration not stated)	.	0.69
.	0.8	i	.	.	12	15	CSCC[C@@H](CO)NC(=O)[C@H]1O[C@@H](n2ccc(N)nc2=O)[C@H](O)[C@@H]1O	-1.6	.
7.0	2.8	i	.	-1	7	13	NC(=O)CSc1nnc(-c2ccccn2)n1N	0.8	0.67
7.8	-25	i	3	-7	-7	-6	CCOc1cccc(C2C(C(=O)c3ccco3)=C(O)C(=O)N2c2nnc(C)s2)c1 (configuration not stated)	0.6	0.72
9.6	1.8	.	1	-2	.	.	Cc1cc(C(=O)N=Nc2c(O)n(C(C)C)c3ccccc23)n[nH]1	.	0.81
.	56*	i	.	.	-11	-3	Nc1sc(-c2ccccc2)cc1C(=O)NCCc1ccc(Cl)cc1	3.3	.
2.8	-1.5	i	22	6	1	1	CS(=O)(=O)CC(=O)Nc1ccc2nc3n(c(=O)c2c1)CCCCC3	-5.2	0.68
5.0	2.7	i	.	20	3	-1	Cc1ccc(C(=O)N2C(=O)C(c3ccccc3)Oc3ccccc32)cc1 (configuration not stated)	0.6	0.66
4.2	3.3	.	-14	3	.	.	CCCOC(=O)c1ccc(NC(=O)c2ccoc2C)cc1	.	0.61
.	-0.1	i	.	.	10	15	C#CCNC(=O)c1csc([C@@H]2O[C@H](CO)[C@@H](O)[C@H]2O)n1	-1.2	.
4.9	1.6	i	15	11	0	0	CCOC(=O)Cc1ncccc1C(=O)Nc1ccc(Oc2ccccc2)cc1	2.1	0.66
3.8	-3.2	i	.	-13	13	17	COc1ccc(C(=O)C(=NNc2ccccc2)c2ccc(OC)cc2)cc1	1.5	0.64
4.2	-0.3	.	2	-2	.	.	COc1cccc(NC(=O)Cn2nnc(-c3ccccc3N)n2)c1	.	0.68
2.7	3.6	i	-2	6	-2	-6	Cc1csc(NC(=O)CCCNC(=O)c2ccc(Cl)cc2)n1	2.0	0.68
-15	2.0	i	.	4	19	5	COc1ccc(-c2nc3c(-c4ccc(Cl)cc4)cnn3cc2C)cc1F	0.3	0.71
1.7	-1.2	.	10	8	.	.	OC(CN1C2=NCCCN2c2ccccc21)c1ccc(Br)cc1 (configuration not stated)	.	0.77
-2.8	0.9	.	-28	-7	.	.	C=C(C)C1Cc2c(C)nn(-c3cccc4ccccc34)c2C1 (configuration not stated)	.	0.73
-2.2	-1.8	i	.	-7	31	5	Cc1ccc(C(=O)CC2SC(N)=NC2=O)cc1 (configuration not stated)	3.3	0.71
-42	3.9	.	28	-6	.	.	Cc1c(NC(=O)C(C)OC(=O)c2cc3c4ccccc4n(C)c3s2)c(=O)n(-c2ccccc2)n1C (configuration not stated)	.	0.7

Entries above that bear a hit mark in HNF4A DNA FP.
UCH37 inh	HNF4A DNA FP	FGF22 binding	ALR H2O2 inh	Beta2AR agonist	Ecoli rRNA inh	Ecoli rRNA inh OD600	smiles	Ecoli rRNA inh RFP	E coli growth
.	56*	i	.	.	-11	-3	Nc1sc(-c2ccccc2)cc1C(=O)NCCc1ccc(Cl)cc1	3.3	.

Part of the list above, showing only Beta2AR agonist and E coli growth:
| compound | Beta2AR agonist | E coli growth |
| --- | --- | --- |
| COc1ccc(-c2nc3c(-c4ccc(Cl)cc4)cnn3cc2C)cc1F | 4 | 0.71 |
| CS(=O)(=O)CC(=O)Nc1ccc2nc3n(c(=O)c2c1)CCCCC3 | 6 | 0.68 |
| CCOC(=O)Cc1ncccc1C(=O)Nc1ccc(Oc2ccccc2)cc1 | 11 | 0.66 |
| N#Cc1cnn2c(-c3ccc(Cl)cc3Cl)ccnc12 | 6 | 0.7 |
| Cc1ccc(SCc2[nH]nc3c2C2(C(=O)N(C)c4ccccc42)C(C#N)=C(N)O3)cc1 (configuration not stated) | 12 | 0.75 |
| Cc1cc(C)cc(NC(=S)NCC2CCCO2)c1 (configuration not stated) | 3 | 0.74 |
| CCn1ncc([N+](=O)[O-])c1C(=O)Nc1cc(C)on1 | 3 | 0.68 |

Later entries:
UCH37 inh	HNF4A DNA FP	FGF22 binding	ALR H2O2 inh	Beta2AR agonist	Ecoli rRNA inh	Ecoli rRNA inh OD600	smiles	Ecoli rRNA inh RFP	E coli growth
.	1.1	i	.	.	-12	-7	CC(C)(C)OC(=O)Nc1ccccc1-n1nnnc1C(C(=O)c1ccccc1)N1CCN(c2ccccn2)CC1 (configuration not stated)	0.7	.
4.7	-0.4	i	-1	5	-25	-16	COc1cccc(CCNC(=O)c2cccc(NC(=O)C3=C(C)OCCS3)c2)c1	-2.2	0.69
2.7	-0.7	.	98*	1	.	.	O=c1cc(O)nc(SCc2ccc(Cl)cc2)[nH]1	.	0.71
4.9	5.5	.	-1	-3	.	.	COc1cc(C(=O)NCc2nnc(SCC(=O)NCc3ccccc3)o2)cc(OC)c1OC	.	0.73
5.2	-1.0	.	99*	21	.	.	CCOc1ccc(NC(C)c2cc(Cl)ccc2O)cc1 (configuration not stated)	.	0.79
6.0	.	.	3	.	.	.	CCCOc1cc(C)c(S(=O)(=O)N2CCOCC2)cc1C	.	0.74
-0.6	-0.7	i	-12	3	7	6	Cc1cccc(C)c1NC(=O)Nc1ccc2c(c1)OCO2	-1.3	0.69
0.2	-1.7	i	-13	7	-4	-5	O=C(COC(=O)CN1C(=O)C2CCCCC2C1=O)NCc1ccc(Cl)cc1Cl (configuration not stated)	1.5	0.71
0.8	29	i	14	0	48	-15	O=C(Nc1nccs1)c1ccc(-c2ccc([N+](=O)[O-])cc2)o1	9.4	0.74
0.5	-4.3	i	.	-1	3	-7	O=C1NCCOC(=O)[C@H](Cc2ccc(F)cc2)C/C=C\C[C@H]1CC(=O)N(CCO)Cc1ccccc1	0.5	0.72

Source: PubChem BioAssay (several laboratories)
